AID504770 – growth inhibition of E. coli YBA685, primary screen, V. cholerae RctB inhibitors. E. coli YBA685 rctB-dependent plasmid, OD600 growth, 3 h; stronger effect = lower value. z-score (test concentration not listed). 130,000 compounds, 0.27% hits. AID 504770, 2011;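 active = z-score under -2 on both plates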;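 note: wells of about 30 µL received 100 nL stock; score is relative to mean and SD of the test wells; the first replicate is given; strong numbers were not always called active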
Ba CapD inh – Bacillus anthracis CapD inhibitors, primary screen, biochemical, fluorescence intensity | purified CapD enzyme, fluorescence intensity read-out; stronger effect = lower value; some hits fall short of the stated cut | z-score (test concentration not listed) | 140,000 compounds, 0.23% hits | AID 492967, 2010;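 active = z-score under -4 in either of two replicates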;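 note: stock transfer was 100 nL into about 40 µL; score is relative to mean and spread of the plate; one replicate is shown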
Active calls of the source: *.

Results for CC1Cc2ccccc2N1C(=O)CNc1cc(C(F)(F)F)ccc1N1CCOCC1 (centres undefined) ?
AID504770: -1.6

How did Cc1ccn2c(NC(=O)c3ccco3)c(-c3ccccc3)nc2c1 do in these assays?
Ba CapD inh: -1.1

How did O=c1c2ccccc2nc2n1N=C(c1ccc(Br)cc1)CS2 do in these assays?
AID504770: -0.95; Ba CapD inh: 0.71

How did CN(C)c1nnnn1-c1cccc(Oc2ncc(C(F)(F)F)cc2Cl)c1 do in these assays?
Ba CapD inh: -0.22

What do the screens show for `CCN(CC)P1(=S)OC(C)(C)CC1(C)O` (centres undefined)?
AID504770: 0.8; Ba CapD inh: 0.62

What do the screens show for `CSc1nc2ccccc2n1CCOc1ccccc1`?
AID504770: -0.7; Ba CapD inh: -0.83

How did O=C(NCc1ccncc1)c1c(O)c2ccccc2[nH]c1=O do in these assays?
AID504770: 0.75

Results for COC(=O)CN1C(=O)/C(=C/c2ccc(OCc3ccccc3Cl)c(OC)c2)SC1=S ?
Ba CapD inh: -0.12

How did O=C(NC1CCCC1)C(NS(=O)(=O)c1cccc2nsnc12)c1ccccc1 (centres undefined) do in these assays?
AID504770: 2.2; Ba CapD inh: -1.3

What do the screens show for `Cc1cc(Cl)c(S(N)(=O)=O)cc1OCC(N)=O`?
AID504770: -0.75; Ba CapD inh: 0.27

Results for Cc1c(C)n(C(=O)CSC(=S)N2CCC(C)CC2)c2ccccc12 ?
AID504770: 1.9; Ba CapD inh: -1.2

How did N#CC(=Nc1cc(Cl)ccc1O)C1=C(O)c2ccccc2C1=O do in these assays?
AID504770: 1.6; Ba CapD inh: 1.1

Results for CC1CC(C)CN(S(=O)(=O)c2ccc(C(=O)NCc3ccccc3)cc2)C1 (centres undefined) ?
AID504770: 0.45; Ba CapD inh: -0.36

How did CCCn1c(C)cc(CNCCSCc2cccs2)c1C do in these assays?
AID504770: -0.25

What do the screens show for `Cc1cc(S(=O)(=O)NC(C)C)ccc1OCC(=O)NCc1ccc2c(c1)OCO2`?
AID504770: -0.55; Ba CapD inh: -0.58

What do the screens show for `COc1ccc(N2Cc3cccc(C(=O)N4CCOCC4)c3C2=O)cc1`?
AID504770: 1.4; Ba CapD inh: 0.53

How did Cc1ccc(Sc2ncccc2[N+](=O)[O-])cc1 do in these assays?
Ba CapD inh: -0.57

Results for O=C(Oc1ccc2oc(=O)sc2c1)c1cccc(Cl)c1 ?
AID504770: 1.4; Ba CapD inh: 0.97

Results for Cc1ccc(C(CC(=O)N2CCNCC2)c2ccccc2)c(O)c1C (centres undefined) ?
AID504770: -0.2; Ba CapD inh: -1.2

Results for O=C(Nc1ccccc1[N+](=O)[O-])c1cc(-c2ccccc2)nc2ccccc12 ?
Ba CapD inh: -0.015

How did CC(C)(C)NC(=O)NC(=O)Cn1c(NCCO)nc2ccccc21 do in these assays?
AID504770: -0.4

What do the screens show for `CCOC(=O)NN=C(C1CC1)C1CC1`?
AID504770: -0.6

Results for O=C(O)/C=C/c1ccc(/C=N/n2ncc3ccccc32)cc1 ?
AID504770: 0.35

What do the screens show for `O=C(O)c1cccnc1SCc1ccccc1Cl`?
Ba CapD inh: 0.12

What do the screens show for `CCOc1ccc(Cl)cc1S(=O)(=O)NC`?
AID504770: 0.3; Ba CapD inh: 0.005

How did CSC1=N/C(=C\c2ccccc2C)C(=O)S1 do in these assays?
AID504770: 0.1; Ba CapD inh: -0.28

What do the screens show for `CCC(C)NC(=O)c1nn(C)c2c1COc1ccccc1-2` (centres undefined)?
AID504770: 0.05; Ba CapD inh: -1.7

Results for NCCCCC(N)C(=O)NC(Cc1ccc(O)cc1)C(=O)NC(CCCCN)C(=O)O (centres undefined) ?
Ba CapD inh: -0.41

How did CCOC(=O)c1[nH]c(C)c(C)c1C do in these assays?
Ba CapD inh: 0.62

What do the screens show for `CCC(=O)Nc1nn(C)c2cccc(F)c12`?
AID504770: -0.65; Ba CapD inh: -0.27

What do the screens show for `O=C(NCCOC12CC3CC(CC(C3)C1)C2)c1cccc(Br)c1`?
AID504770: 0.4; Ba CapD inh: 0.44

How did CCOc1ccc(CN(C)Cc2nc(N)nc(Nc3ccc(C)cc3)n2)cc1 do in these assays?
AID504770: 0.1

What do the screens show for `O=C(/C=C/c1ccc(Br)o1)OCC(=O)N1CCCc2ccccc21`?
AID504770: -0.75; Ba CapD inh: -1.1

What do the screens show for `O=S(=O)(Cc1ccc(Cl)cc1)N1C=CC(C(F)(F)F)=NCC1`?
AID504770: 2; Ba CapD inh: -0.54

Results for O=S(=O)(NC(CO)Cc1ccc(O)cc1)c1ccc(Cl)cc1Cl (centres undefined) ?
Ba CapD inh: 0.68

How did CC(C)NC(=O)c1scc(S(C)(=O)=O)c1Cl do in these assays?
AID504770: -0.55; Ba CapD inh: -0.15

What do the screens show for `CCNC(=O)n1cc(-c2ccncn2)c(-c2ccccc2)n1`?
Ba CapD inh: -0.33

What do the screens show for `CC(C)Oc1ccccc1NC(=O)c1cccc(C(=O)Nc2ccccc2OC(C)C)c1`?
AID504770: 1.3; Ba CapD inh: -1.2

Results for Cc1c(C(=O)N(C)Cc2ccccc2)sc2nc(-c3ccccc3)cn12 ?
AID504770: -1.5

Results for Brc1cccc(-c2nnc(CN3CCOCC3)o2)c1 ?
AID504770: 1.9; Ba CapD inh: 0.005

What do the screens show for `CCn1c(=O)cc(N2CCOCC2)[nH]c1=O`?
AID504770: 0.65

How did O=C1NC(=S)NC(=O)C1C1CCCCC1 do in these assays?
AID504770: -0.8

How did O=C(Nc1ccc2[nH]ncc2c1)c1ccccc1 do in these assays?
AID504770: 0.9

Results for Cc1cc(NC(=O)C2C3C=CC(C3)C2C(=O)O)no1 (centres undefined) ?
AID504770: 1.5; Ba CapD inh: -0.69

Results for COc1ccc(NC(=O)CSc2nnc(-c3ccccc3)c(-c3ccccc3)n2)cc1 ?
Ba CapD inh: -0.46

What do the screens show for `CCOC(=O)c1cnc2ccccc2c1Nc1ccc(C)cc1`?
Ba CapD inh: -1.1

What do the screens show for `COCCNC(=O)c1ccc(Cn2c(SCC(=O)NCc3ccccc3)nc3ccc(Br)cc3c2=O)cc1`?
Ba CapD inh: 0.34

Results for Cn1c(CCN(Cc2ccco2)S(=O)(=O)c2ccc(Cl)cc2)n[nH]c1=S ?
AID504770: -0.45; Ba CapD inh: 0.12

Results for CCOC(=O)C1SC2(C(F)(F)F)CC1(O)c1c(C)cc(C)nc1O2 (centres undefined) ?
AID504770: -0.25; Ba CapD inh: 0.45

Results for CC12CC3(C)CC(CC(=O)O)(C1)CC(CC(=O)O)(C2)C3 ?
AID504770: 0.8; Ba CapD inh: inactive

What do the screens show for `Cc1cc(-n2c(SCC(=O)Nc3ccccc3C(F)(F)F)nc3n[nH]c(C)c3c2=N)ccc1Cl`?
Ba CapD inh: 0.43

What do the screens show for `CCc1nn(CC(=O)N2CC(C)CC(C)C2)c(=O)c2cc3occc3n12` (centres undefined)?
AID504770: -0.55; Ba CapD inh: -0.065

How did CCOC1(OCC)N=C(N)C2(C#N)C3(CCCCC3)C12C#N (centres undefined) do in these assays?
AID504770: 1.1; Ba CapD inh: 0.76

Results for CCCCOCC1CC2(CC(C)(c3csc(Nc4ccccc4)n3)OC2=O)C(=O)O1 (centres undefined) ?
Ba CapD inh: -0.39

How did CCN1C(=O)N(CC)C(NNC(N)=S)C1NNC(N)=S (centres undefined) do in these assays?
Ba CapD inh: -0.11

What do the screens show for `O=C1C2C(C(=O)N1/N=C/c1cccc(I)c1)C1C=CC2C12CC2` (centres undefined)?
AID504770: -0.65; Ba CapD inh: 0.96

What do the screens show for `O=C(O)/C=C/c1ccc(F)cc1`?
AID504770: -3.2; Ba CapD inh: 0.075

How did CCSc1nc2ccc(NC(=O)CSCC(=O)Nc3c(C)cccc3C)cc2s1 do in these assays?
Ba CapD inh: -0.86

How did COC(CNC(=O)c1cccc(NS(=O)(=O)c2ccc(Cl)cc2)c1)OC do in these assays?
AID504770: -0.75; Ba CapD inh: 0.14

How did O=C(NC1(C(=O)NC2CCCCC2)CCCCC1)c1ccccn1 do in these assays?
AID504770: -0.1; Ba CapD inh: -0.24

Results for O=C(c1ccc(CS(=O)(=O)c2ccc(Br)cc2)o1)N1CCCCC1 ?
AID504770: 0.55; Ba CapD inh: -0.23

How did CC1Cc2ccccc2N1C(=O)CSc1nncn1-c1ccccc1 (centres undefined) do in these assays?
AID504770: -0.65

Results for CCOC(=O)C1=C(N)OC2=C(C(=O)CC(C)(C)C2)C1c1ccc(O)cc1 (centres undefined) ?
Ba CapD inh: -0.045

How did O=C(O)CSc1nnc2sc3ccccc3n12 do in these assays?
AID504770: -0.25; Ba CapD inh: 1.1

Results for CS/C(N)=N/N=C/c1c(Cl)cccc1Cl ?
Ba CapD inh: -1.5

What do the screens show for `Cc1cc(C)c2c(N)c(C(=O)Nc3nnc(-c4ccccc4)s3)sc2n1`?
Ba CapD inh: 2.1

How did CCCCOC(=O)C1=C(C)NC2=C(C(=O)CCC2)C1c1ccc(Cl)cc1 (centres undefined) do in these assays?
Ba CapD inh: 10

Results for N#CCn1nnc(-c2ccc3c(c2)OCO3)n1 ?
AID504770: 1.3; Ba CapD inh: 0.12

What do the screens show for `Cc1cc(C)n(CC(O)CNCc2ccco2)n1` (centres undefined)?
AID504770: -0.25

What do the screens show for `O=C(CSc1nnc(-c2cnccn2)s1)c1cccc(C(F)(F)F)c1`?
AID504770: -0.1; Ba CapD inh: 1.1

How did Cc1ccc2c(COC(=O)Cc3n[nH]c(=O)c4ccccc34)cc(=O)oc2c1 do in these assays?
AID504770: -0.1

What do the screens show for `CCOC1(C)C(=O)c2ccccc2N1Nc1ccccc1C(=O)CC` (centres undefined)?
AID504770: 1.4; Ba CapD inh: -1

How did O=C(CSc1nnnn1-c1ccc(O)cc1)c1ccc2c(c1)OCCO2 do in these assays?
AID504770: 0.4

Results for OCCSc1ccc2nnc(-c3ccccc3)n2n1 ?
AID504770: -0.15; Ba CapD inh: 2.7

What do the screens show for `Cc1cccc(NS(=O)(=O)c2c(C)[nH]c(=O)[nH]c2=O)c1C`?
AID504770: 1.8; Ba CapD inh: -0.71

Results for CCOC(=O)c1cc(-c2ccccc2)n(CCC(=O)N2CCn3c2nc2ccccc23)c1C ?
AID504770: -0.25; Ba CapD inh: 0.9

What do the screens show for `CC(Sc1nc2ccccc2o1)C(=O)O` (centres undefined)?
AID504770: -0.35; Ba CapD inh: 0.74

What do the screens show for `Cn1nc(C(C)(C)C)cc1C(=O)NNc1c(Cl)cncc1Cl`?
AID504770: 0.55; Ba CapD inh: 0.13

How did CC(NC(=O)Cc1cccc2ccccc12)C(=O)N1CCC(=O)CC1 (centres undefined) do in these assays?
AID504770: -0.75

Results for O=c1[nH]c(SCc2cccc(F)c2)nc2ccccc12 ?
AID504770: 0.65; Ba CapD inh: 1.4

How did Cc1ccc(Cn2ccsc2=NC(=O)COC(=O)C2=COCCO2)cc1 do in these assays?
AID504770: 0.4

What do the screens show for `N#CC(C#N)=CNc1ccc(Oc2cccnc2)nc1`?
AID504770: -0.3; Ba CapD inh: -1.8

What do the screens show for `Cc1ccc2[nH]c3c(=O)n(N)c(C)nc3c2c1`?
AID504770: 0.15

How did Cc1[nH]c2ccccc2c1CCNCc1ccncc1 do in these assays?
AID504770: -0.15; Ba CapD inh: 0.035

What do the screens show for `CC1=CC2=NC(=N)/C(=C/C3CC=CCC3)C(=O)N2C=C1` (centres undefined)?
AID504770: -0.45

What do the screens show for `O=C(O/N=C/c1ccc2c(c1)OCO2)c1ccccc1`?
Ba CapD inh: 2.8

How did CC(C)(C)n1nnnc1C(c1cccc(C(F)(F)F)c1)N1CCC(O)CC1 (centres undefined) do in these assays?
AID504770: 0.1

What do the screens show for `Cc1cc(I)ccc1NC(=O)c1ccc(C(C)(C)C)cc1`?
AID504770: -0.05; Ba CapD inh: -0.03

What do the screens show for `CN1c2ccccc2C(C)(C)C12C=Nc1c(cc(N3CCOCC3)c3ccccc13)O2` (centres undefined)?
Ba CapD inh: 0.89

How did CC(OC(=O)C1CC1)C(=O)Nc1cc(C(F)(F)F)ccc1Cl (centres undefined) do in these assays?
AID504770: 0.85; Ba CapD inh: 0.39

How did COc1ccccc1NC(=O)C1C(=O)NC23CCCCC2C1c1ccccc1O3 (centres undefined) do in these assays?
AID504770: -0.65; Ba CapD inh: -0.16

Already shown: entries from further up.
Results for CCOC(=O)c1cc(-c2ccccc2)n(CCC(=O)N2CCn3c2nc2ccccc23)c1C ?
AID504770: -0.25; Ba CapD inh: 0.9

What do the screens show for `CC(Sc1nc2ccccc2o1)C(=O)O` (centres undefined)?
AID504770: -0.35; Ba CapD inh: 0.74

What do the screens show for `Cn1nc(C(C)(C)C)cc1C(=O)NNc1c(Cl)cncc1Cl`?
AID504770: 0.55; Ba CapD inh: 0.13

How did CC(NC(=O)Cc1cccc2ccccc12)C(=O)N1CCC(=O)CC1 (centres undefined) do in these assays?
AID504770: -0.75

Results for O=c1[nH]c(SCc2cccc(F)c2)nc2ccccc12 ?
AID504770: 0.65; Ba CapD inh: 1.4

How did Cc1ccc(Cn2ccsc2=NC(=O)COC(=O)C2=COCCO2)cc1 do in these assays?
AID504770: 0.4

What do the screens show for `N#CC(C#N)=CNc1ccc(Oc2cccnc2)nc1`?
AID504770: -0.3; Ba CapD inh: -1.8

What do the screens show for `Cc1ccc2[nH]c3c(=O)n(N)c(C)nc3c2c1`?
AID504770: 0.15

How did Cc1[nH]c2ccccc2c1CCNCc1ccncc1 do in these assays?
AID504770: -0.15; Ba CapD inh: 0.035

What do the screens show for `CC1=CC2=NC(=N)/C(=C/C3CC=CCC3)C(=O)N2C=C1` (centres undefined)?
AID504770: -0.45

What do the screens show for `O=C(O/N=C/c1ccc2c(c1)OCO2)c1ccccc1`?
Ba CapD inh: 2.8

How did CC(C)(C)n1nnnc1C(c1cccc(C(F)(F)F)c1)N1CCC(O)CC1 (centres undefined) do in these assays?
AID504770: 0.1

What do the screens show for `Cc1cc(I)ccc1NC(=O)c1ccc(C(C)(C)C)cc1`?
AID504770: -0.05; Ba CapD inh: -0.03

The list is partial; the hit share may differ from the screen's.
